Screens as filed in PubChem.
S aureus helic: S. aureus DNA helicase inhibition | purified S. aureus helicase, fluorescence unwinding assay; about half of the hits fall short of the stated cut | inhibition, %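 (tested at about 80 µM)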 | hit rate 0.05% among 120,000;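 active means both duplicates at 50% or more, or one of them with a favoured structure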;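 further: 0% = mean of negative control wells and 100% = mean of positive control wells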
MgrA DNA FP: modulators of Staphylococcus aureus MgrA DNA binding; fluorescence polarization; inhibition, %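 (about 10 µg/mL by stock and volumes)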; hit rate 0.13% among 84,000;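 active means above 50% in either of two replicates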;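 further: 0% = protein plus DNA without compound and 100% = DNA alone without protein; higher means less MgrA bound to DNA so lower polarization; one replicate is shown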
The depositor's hits bear a star; x = not tested or not shown; & = joins results of further samples. This is a subset (hit frequency here may not be typical).

S aureus helic | MgrA DNA FP | SMILES
1 | x | COC(=O)c1c[nH]n2c(=O)c(Cc3ccc(C)cc3)c(C)nc12
9 | x | Cc1cc(SC/C(O)=C(\C#N)c2nc3ccccc3[nH]2)nc2ccccc12
10 | 0.8 | Cc1c(C)n(C(=O)CSc2ccc(Cl)cc2)c2ccccc12
x | -0.9 | CCCc1ccc(C(=O)Nc2cccnc2Oc2ccc(C(C)(C)C)cc2)cc1
-16 | x | O=C(c1nc2n(n1)C(c1ccc(Cl)cc1)C=C(c1ccccc1)N2)N1CCOCC1 (stereo unspecified)
2 | x | CC(=O)Nc1ccc(NC2CCCCC2NS(=O)(=O)c2ccc(Cl)cc2)cc1 (stereo unspecified)
2 | -3.9 | Cc1ccc(S(=O)(=O)CC(=O)Nc2cc(Cl)ccc2N2CCOCC2)cc1
x | -1.7 | Cc1cc2nc3s/c(=C\c4ccc(N5CCOCC5)c([N+](=O)[O-])c4)c(=O)n3c2cc1C
-6 | x | CN(C(=O)/C=C/c1ccco1)c1c(N)n(Cc2ccccc2)c(=O)[nH]c1=O
7 | -1.2 | CCc1ccc(NC(=O)COc2ncnc3ccccc23)cc1
-4 | -1.9 | CCNC(=O)c1sc(-c2ccccc2)nc1C
8 | x | COc1ccc(C(CNC(=S)NCc2ccco2)N2CCCCC2)cc1 (stereo unspecified)

Next part.
S aureus helic | MgrA DNA FP | SMILES
-9 | x | O=C(/C=C/NCc1ccccc1)C(F)(F)F
8 | x | C/C(N)=C(/C#N)C(=O)CSc1nc2ccccc2c(=O)[nH]1
10 | 0.5 | Cn1ncc2c(=O)n(CC(=O)c3ccccc3)cnc21
11 | 9.0 | CNC(=O)c1cc(S(=O)(=O)N2CCCc3ccccc32)ccc1C
x | -3.7 | Cc1cc2c(=O)n(-c3ccccc3)c(=S)[nH]c2s1
-13 | x | O=C(Cn1ncc2c(=O)oc3ccccc3c21)NCCc1ccsc1
5 | -0.8 | CCC1(C)Cc2nc3nc(SCC(=O)c4ccccc4)n(Cc4ccccc4)c(=O)c3cc2CO1 (stereo unspecified)
18 | x | CCCCn1c(SCC(=O)c2ccc(OC)cc2OC)nc2cc(S(N)(=O)=O)ccc21
x | -2.5 | Cc1cc(C)n(-c2c(Cl)cc(Cl)cc2Cl)n1
3 | x | CCOC(=O)N1CCC(NC(=O)c2cc3c(s2)CS(=O)(=O)C3)CC1
15 | x | O=C(CNS(=O)(=O)c1ccccc1)Nc1c(-c2ccccc2)c2cc(Br)ccc2[nH]c1=O
6 | x | NC(=O)c1ccsc1NC(=O)c1sc2ccccc2c1Cl

(next part)
S aureus helic | MgrA DNA FP | SMILES
x | -2.5 | O=C(NC(NC1CCCCC1)(C(F)(F)F)C(F)(F)F)c1ccccc1
2 | x | CCOC(=O)C1CCN(Cn2c(=S)oc3ccc(S(=O)(=O)CC)cc32)CC1
-5 | 1.9 | O=C(NC1CCCCC1)NC1CCN(Cc2nnnn2Cc2ccco2)CC1
-20 | x | Cc1cc(NC(c2cccc(Br)c2)c2ccc3cccnc3c2O)no1 (stereo unspecified)
11 | x | CN1/C(=C(\C#N)C(=O)CSc2nnc(-c3ccc(Cl)cc3)o2)Sc2ccccc21
-11 | x | CCN(CC)/C(C)=N/C(=S)Nc1ccccc1
x | 2.2 | CC(=O)n1nc(C)c(Sc2ccc(C(F)(F)F)cn2)c1C
-54 | -14 | O=C1NC(=O)C(=Cc2ccc(N3CCCC3)o2)C(=O)N1
-15 | x | CN(CC(=O)Nc1ccc(F)cc1)C(=O)Cn1nnc(-c2ccccc2)n1
x | -0.8 | Cc1cc(C)n(C)c(=O)c1C#N
-5 | x | NC(=S)c1ccc(O)cc1
-7 | x | CN1CCC(=NNC(=O)c2ccc(CN(c3ccccc3)S(C)(=O)=O)cc2)CC1

By substructure, the entries above containing fluorine (four)
S aureus helic | MgrA DNA FP | SMILES
-9 | x | O=C(/C=C/NCc1ccccc1)C(F)(F)F
x | -2.5 | O=C(NC(NC1CCCCC1)(C(F)(F)F)C(F)(F)F)c1ccccc1
x | 2.2 | CC(=O)n1nc(C)c(Sc2ccc(C(F)(F)F)cn2)c1C
-15 | x | CN(CC(=O)Nc1ccc(F)cc1)C(=O)Cn1nnc(-c2ccccc2)n1

(cont.)
S aureus helic | MgrA DNA FP | SMILES
-29 | 1.0 | CCc1cc(C(=O)O)c(NC(=O)c2ccc(Br)cc2)s1
26 | x | CC(C)(C)OC(=O)N1CCC[C@H]1C(=O)Nc1ccc(C#N)cc1
5 | x | COc1ccc(OC)c(NC(=O)C(Cc2ccccc2)NS(=O)(=O)c2cccc3nsnc23)c1 (stereo unspecified)
4 | 2.4 | CCC(O)(CC)C12CC3CC(CC(C3)C1)C2
7 | x | Cc1ccc(CNC(=O)c2ccc(N3CC(C)Sc4ccccc43)s2)o1 (stereo unspecified)
0 | -2.4 | Cc1nnc(C)n1N(C)C
7 | x | O=C1NC(=O)/C(=C\C=C\c2ccccc2)S1
-18 | x | O=C(CSc1nnc(-c2ccc(Cl)cc2)o1)NC1CCSc2ccccc21 (stereo unspecified)
16 | 0.2 | NC1=NC(=O)/C(=C\c2ccccc2OCc2ccccc2F)S1
5 | x | CC(C)(C)C(=O)CC(C)(O)c1ccc(Cl)cc1 (stereo unspecified)
-15 | x | Cc1ccc(S(=O)(=O)n2cc(/C=C(\C#N)C(N)=O)c3ccccc32)cc1
-3 | 2.2 | c1ccc(-c2nn(-c3ccccc3)[n+](-c3nnn[n-]3)n2)cc1

More results follow.
S aureus helic | MgrA DNA FP | SMILES
-10 | x | CC(Sc1nnc2ccccn12)C(N)=O (stereo unspecified)
-3 | x | O=C(O)/C=C/c1cccnc1
10 | 0.9 | CCCCC(=O)Nc1ccc(NCc2ccc(C)s2)cc1
13 | -0.1 | Cc1ccc(CNC(=O)c2ccccc2N)cc1
6 | 2.9 | O=C(CSCc1ccccc1)Nc1ccc2c(c1)OCO2
5 | x | Cc1ccc(NC(=O)C(C)NC(=O)C(c2ccccc2)c2ccccc2)cc1C (stereo unspecified)
9 | -0.2 | CNC(=S)Nc1ccc(OC)c(OC)c1
0 | x | Cc1nc2ccccc2n1C(=O)CCCC(=O)O
-9 | x | CC(COc1ccc(C(C)C)cc1)NS(=O)c1ccc2ccccc2c1 (stereo unspecified)
16 | x | C=CCOc1cccc(C2c3c(oc4ccc(F)cc4c3=O)C(=O)N2CCOC)c1 (stereo unspecified)
-8 | x | Cc1nc2cc(C(=O)OC(C)C(=O)N3CCOCC3)ccc2n1-c1ccccc1 (stereo unspecified)
-2 | 1.4 | COc1ccccc1-n1c2nc3ccccc3nc2c2c(=O)n(C3CCCC3)cnc21

Complete entries, quoted from the list. Order of values: S aureus helic	MgrA DNA FP
Cn1ncc2c(=O)n(CC(=O)c3ccccc3)cnc21 as listed: 10	0.5
NC(=O)c1ccsc1NC(=O)c1sc2ccccc2c1Cl as listed: 6	x

Next records
S aureus helic | MgrA DNA FP | SMILES
-16 | x | CNC(=S)N/N=C(\C)c1ccccc1OC
34 | x | c1ccc(-c2cn3nc(C4CCCCC4)sc3n2)cc1
-6 | 1.4 | O=C(COc1ccccc1)Oc1cc(-c2ccccc2)c2oc(=O)sc2c1
x | -1.0 | O=C1c2ccccc2C(=O)C1c1ccc(Cl)cc1
-17 | 0.1 | O=C(CSc1nc2ccccc2[nH]1)N1CCCc2ccccc21
4 | 0.8 | COc1ccc(C(C)NC=O)cc1OC (stereo unspecified)
x | 1.6 | CCCCNC(=O)NS(=O)(=O)c1ccccc1C(F)(F)F
-120 | x | N#CC(C#N)=C1C=C2C=C(N3CCCCC3)CCC2CC1 (stereo unspecified)
11 | -0.8 | O=C(NCCN1CCOCC1)Nc1c[nH]c2ccccc2c1=O
-1 | x | COc1ccc(C(=O)O)cc1S(=O)(=O)N(C)CCc1ccccn1
x | -0.3 | O=C(Nc1ccccc1)Oc1ccccc1N1CCOCC1
x | -3.3 | COC(=O)c1cc(OC)c(OC)c(OC)c1N

(continued)
S aureus helic | MgrA DNA FP | SMILES
15 | x | CCC(C)NC(=O)c1nn(Cc2ccccc2)c(=O)c2ccccc12 (stereo unspecified)
-1 | 0.2 | C/C(=N\N=C(/C)c1cccs1)c1cccs1
1 | 0.6 | COCC(C)NC(=O)c1noc2c1CCc1cc(OC)ccc1-2 (stereo unspecified)
25 | x | CC1(C)C(c2ccc(F)cc2)=[N+]([O-])C(C)(C)C(c2ccc(F)cc2)=[N+]1[O-]
6 | -0.5 | CCC(C(=O)N1CCN(c2cc(C)ccc2C)CC1)n1sc2ccccc2c1=O (stereo unspecified)
x | -0.8 | COC(=O)c1cc(OC)c(OC)cc1NS(=O)(=O)c1ccc(OC)cc1
0 | -1.6 | CC1(C)C(=O)C2(C(=O)N3CCOCC3)CCC1C2 (stereo unspecified)
3 | x | COC(=O)CCn1c(C)cc(C(=O)CSc2cccc[n+]2[O-])c1C
7 | -1.3 | COc1ccc2c(c1OC)C(=O)N(c1ccc(F)cc1)C2
-13 | 2.1 | Cc1cc(N)n(CCC#N)n1
-92 | x | CSC1=NSC2=NC(=O)/C(=C\c3ccc(-c4ccccc4)o3)C(=N)N12
3 | 1.4 | CC(=O)N(c1ccc2oc(=O)sc2c1)S(=O)(=O)c1ccccc1

(cont.)
S aureus helic | MgrA DNA FP | SMILES
-21 | x | CC(C(=O)NC1CCCCCC1)n1c(=O)c2cccn2c2cccnc21 (stereo unspecified)
7 | x | CC1=Nc2ccccc2N=C(NC(=O)C(C)N2C(=O)c3ccccc3C2=O)C1c1ccccc1 (stereo unspecified)
x | -3.5 | COc1ccc(CN=C(C)c2c(O)c3ccccc3n(C)c2=O)cc1
x | -0.1 | CCCn1c(=O)cc(N)n(-c2ccc(Cl)cc2)c1=O
x | 0.6 | FC(F)(F)c1cccc(Cc2cccc(C(F)(F)F)c2)c1
-6 | x | N#CC1(NC(=O)COc2cccc(C(F)(F)F)c2)CCCCC1
x | -1.5&2.5 | COc1ccc2cc([C@H](C)C(=O)O)ccc2c1
x | 1.6 | O=C(NCCCN1CCOCC1)c1cc2n(n1)C(C(F)(F)F)CC(c1ccc(Cl)c(Cl)c1)N2 (stereo unspecified)
-5 | x | COc1ccc(CCNc2ncccc2C#N)cc1OC
x | -1.9 | CN(C)C(c1ccccc1)c1ccccc1
x | 0.9 | FC(F)(F)c1nc(SCc2ccc(Cl)cc2)n[nH]1
-10 | -2.3 | CN(C)C(=O)c1cc(Cl)ccc1Cl

Further records.
S aureus helic | MgrA DNA FP | SMILES
x | 0.0 | C#CCOc1c(Cl)cccc1Cl
25 | x | COc1ccc(OC)c(S(=O)(=O)n2ccnc2C)c1
-30 | x | COCCNC(=O)Cn1cnc2c(nc3n2CCCCC3)c1=O
5 | 1.2 | N#Cc1c(N2CCOCC2)nc(N2CCOCC2)c2c1CCN(Cc1ccccc1)C2
x | -0.8 | Cc1[nH]nc2c1C1=C(C(=O)CCC1)C(c1ccc(N(C)C)cc1)N2 (stereo unspecified)
-11 | x | FC(F)(F)c1cc(-c2cccs2)nc2nc(N3CCOCC3)sc12
8 | -1.4 | CCCOC(=O)Nc1ccc(Cl)cc1C(=O)c1ccccc1
x | 4.1 | COc1cc(OCc2ccccc2)ccc1CN1CCC(C(=O)c2ccc(F)cc2)CC1
x | -2.4 | N#CCCN1C(=O)C2(OCCO2)C2CCCCC21 (stereo unspecified)
3 | x | C=CCNC(=O)c1cc(=O)[nH]c(=O)[nH]1
-10 | 3.1 | CC(=O)n1nc(-c2cccnc2)nc1N
x | -0.6 | Cc1cc(=O)n2[nH]c(C(F)(F)F)c(-c3ccccc3)c2n1

Shown tab-delimited: entries from further up.
Structure	S aureus helic	MgrA DNA FP
C#CCOc1c(Cl)cccc1Cl	x	0.0
COc1ccc(OC)c(S(=O)(=O)n2ccnc2C)c1	25	x

Continuation.
S aureus helic | MgrA DNA FP | SMILES
x | -1.8 | Cc1cc(C)c2cc(C(=O)N(C)C3CCN(C)CC3)[nH]c2c1
0 | x | CCN(CC)C(=O)C1=CC(c2ccco2)=NS(=O)(=O)N1C
6 | -0.9 | CCN(CC)CCn1c(=N)n(Cc2ccc(C(C)(C)C)cc2)c2ccccc21
17 | -0.7 | CCN(CC)C(=O)Cn1cc(/C=C(\C#N)C(=O)N2CCN(c3ccccc3)CC2)c2ccccc21
-3 | 5.2 | CC1=NN(c2cc(C)nc(-c3ccccc3O)n2)C(=O)C1
x | -2.1 | COC(=O)C1=C(C)NC2=C(C(=O)CC(c3ccc(Cl)cc3)C2)C1c1ccc(OC(C)=O)c(OC)c1 (stereo unspecified)
x | -0.8 | O=C1CCC(=O)N1c1cc(C(F)(F)F)cc(C(F)(F)F)c1
-11 | 2.0 | N#CCCSCc1ccc(C(=O)O)o1
5 | -2.0 | Cc1csc(SCC(=O)N2CCCC2)n1
8 | x | NNC(=S)Nc1ccccc1C(F)(F)F
-31 | x | O=C1C2CCCN2C(c2ccccc2)N1c1ccc(Cl)cc1 (stereo unspecified)
6 | x | c1ccc(-c2nnc(-c3cccs3)o2)cc1

(continued)
S aureus helic | MgrA DNA FP | SMILES
-18 | 0.8 | O=C(COC(=O)COc1ccc(Cl)cc1)NC1CCCCC1
20 | x | O=C(CNCCC1=CCCCC1)Nc1ccc2[nH]c(=O)[nH]c2c1
x | 0.6 | CC(=O)/C(N=Nc1cc2c(c([N+](=O)[O-])c1C)C(C)(C)CC2(C)C)=C(\C)O
-10 | x | Cc1ccc(N2C(=O)CS/C2=N\C(=O)Nc2ccccc2)c(C)c1
3 | x | Cc1ccc(Cn2c(CO)cnc2SCC(=O)Nc2ccc3c(c2)OCO3)cc1
10 | -0.8 | CC(C)C(=O)Nc1nnc(C2CC2)s1
6 | x | C=CCN(CC=C)Cc1cc(=O)n2c(-c3ccccc3)csc2n1
4 | x | CCn1c(SCC(=O)OCC(=O)N2c3ccccc3Sc3ccccc32)nnc1-c1ccco1
-20 | x | Cc1cc(NC(=O)c2coc3ccccc3c2=O)no1
-11 | x | CNC(=O)/C=C1/N(C)c2ccccc2C1(C)C
8 | -0.9 | O=C(c1ccco1)N1CCCC(c2nc(-c3ccc(S(=O)(=O)NCc4ccccc4)cc3)no2)C1 (stereo unspecified)
7 | -3.0 | CCCCC1C(=O)NC(=Nc2nc(C)c3ccc(OC)cc3n2)NC1=O (stereo unspecified)
21 | x | C=CCc1ccccc1OCc1cc(=O)n2nc(CC)sc2n1
2 | x | CC1CCN(C(=O)COC(=O)c2cccc(I)c2)CC1
